Bioassay records as filed in PubChem.
StopGo reporter – High Throughput Screening for Foot and Mouth Disease Virus Antivirals | human cells with a luciferase reporter of 2A StopGo recoding; control for the full effect not named in the record | Potency, µM (series often up to 57.9 µM), without a hit: at the top dose signal change, negative = less light | actives 1.2% (n = 410,000) | AID 1159524, 2015; active = well fitted falling curve with a large enough effect; inconclusive = small, poorly fitted or top-dose-only effect; inactive = no such curve, though single readings can be large or run the other way; tested in HEK293T cells; note: % is set by controls: 0 for no effect and ±100 for the full control effect; nearly all actives have a fitted effect of over 45% in size; luciferase light after 4 h
SARS PLpro yeast – qHTS of Yeast-based Assay for SARS-CoV PLP; S. cerevisiae expressing SARS-CoV PLpro, growth rescue; control for the full effect not named in the record; Potency, µM (series often up to 32.9 µM), without a hit: top-dose activity, positive = growth rescue; actives 0.19% (n = 330,000); AID 485353, 2010; note: 0% is about no effect; nearly all actives have a fitted effect of over 55% in size; growth read by luminescence after 48 h
MARV entry inh – qHTS for inhibitors of binding or entry into cells for Marburg Virus; Potency, µM (top dose mostly 37.8 µM), without a hit: at the highest dose activity change, negative = inhibition, actives largely listed as inhibitors; actives 1.8% (n = 300,000); Marburg virus pseudotyped entry inhibition, cell reporter; control for the full effect not named in the record; about a third of the inactives were read at about 46 µM; active = well fitted inhibition curve with a large enough effect; inconclusive = small, poorly fitted or top-dose-only effect, or effect the other way; inactive = flat fitted curve, though single readings scatter; tested in HEK293 cells; about a fifth of its hits are not listed in these tables; note: % is set by controls: 0 for no effect and ±100 for the full control effect; luciferase read-out
NS1 inh – qHTS Assay for Inhibitors of Influenza NS1 Protein Function | S. cerevisiae slowed by influenza A NS1, growth recovery by OD600 | Potency, µM (titrated, usually from 46.1 µM), without a hit: at the top dose activity, positive = more growth | actives 0.4% (n = 270,000); note: actives are rising curves; nearly all actives have a fitted effect of over 50% in size
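In this qHTS, NS1 from influenza A is expressed in budding yeast, where it slows growth. Cells are switched from glucose to 2% galactose medium (pH 6.0, -URA), treated with compound, and growth recovery is read at OD600.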
Cruzain noTriton – qHTS Assay for Promiscuous and Specific Inhibitors of Cruzain (without detergent); Cruzipain (Trypanosoma cruzi), P25779; purified cruzain, Z-FR-AMC fluorescence, no detergent; Potency, µM, for inactives: max response, negative = inhibition, usual class: inhibitors; actives 2.3% (n = 200,000); AID 1476, 2009; active = well fitted curve in the direction sought with a large enough effect; inconclusive = small, poorly fitted or top-dose-only effect, or another doubt; inactive = no such curve, though single readings can be large; an effect the other way counts as inactive or inconclusive;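 note: plate controls were enzyme without inhibitor for no effect and buffer without enzyme for full effect; nearly all actives have a fitted effect of over 40% in size; top concentration of the series not given in the record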
Target sequence (P25779 123-467 limits assumed): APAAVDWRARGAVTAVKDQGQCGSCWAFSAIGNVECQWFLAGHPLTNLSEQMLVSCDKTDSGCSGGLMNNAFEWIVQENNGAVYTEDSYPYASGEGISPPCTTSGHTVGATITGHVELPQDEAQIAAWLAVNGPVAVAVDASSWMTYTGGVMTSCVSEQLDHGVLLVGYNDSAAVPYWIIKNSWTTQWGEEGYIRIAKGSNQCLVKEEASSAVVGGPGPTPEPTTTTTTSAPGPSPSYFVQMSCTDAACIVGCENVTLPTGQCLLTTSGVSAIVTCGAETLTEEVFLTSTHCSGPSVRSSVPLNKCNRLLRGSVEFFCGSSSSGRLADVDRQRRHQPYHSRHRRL
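Detergent-free condition (0.00005% Triton X-100) in acetate buffer pH 5.5 with DTT. 1.5 nM enzyme and compound were pre-mixed 15 min, then 2 uM Z-FR-AMC substrate added; reaction progress from fluorescence change between first and third reads (60 s).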
Lassa entry inh – qHTS for Inhibitors of binding or entry into cells for Lassa Virus | Potency, µM (top dose mostly 37.9 µM), without a hit: at the top dose activity change, negative = inhibition, most hits filed as inhibitors | Lassa virus pseudotype entry inhibition, cell reporter; control for the full effect not named in the record | actives 1.2% (n = 300,000) | AID 540256, 2011; active means well fitted inhibition curve with a large enough effect; inconclusive means small, poorly fitted or top-dose-only effect, or effect the other way; inactive means flat fitted curve, though single readings scatter; tested in HEK293 cells; note: % is set by controls: 0 for no effect and ±100 for the full control effect; nearly all actives have a fitted effect of over 50% in size; luciferase read-out
RE007 growth inh – qHTS Assay for Inhibitors of the HIV-1 protein Vpr; S. pombe RE007 Vpr strain, BacTiter-Glo ATP luminescence, 24 h; control for the full effect not named in the record; Potency, µM (titrated, usually from 92.2 µM), for the others: top-dose activity change, negative = less growth; actives 0.21% (n = 360,000); AID 651644, 2012; active = well fitted falling curve with a large enough effect; inconclusive = small, poorly fitted or top-dose-only effect; inactive = no such curve, though single readings can be large or run the other way;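 note: % is set by controls: 0 for no effect and ±100 for the full control effect; nearly all actives have a fitted effect of over 50% in size; the assay follows cell death caused by Vpr and the record does not say whether a fall means rescue or toxicity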
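Fission yeast strain RE007, carrying one chromosomally integrated HIV-1 vpr copy, was seeded at OD 0.01 in PMG+AL medium with 23 nL pinned compound. After 24 h at 30 °C and 99% humidity, viability was read by BacTiter-Glo luminescence.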
Cruzain Triton – qHTS Assay for Promiscuous and Specific Inhibitors of Cruzain (with detergent); purified cruzain, Z-FR-AMC fluorescence, 0.01% Triton; Potency, µM, without a hit: max response, negative = inhibition, actives largely listed as inhibitors; actives 0.43% (n = 200,000); AID 1478, 2009; active = well fitted curve in the direction sought with a large enough effect; inconclusive = small, poorly fitted or top-dose-only effect, or another doubt; inactive = no such curve, though single readings can be large; an effect the other way counts as inactive or inconclusive;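 note: plate controls were neutral wells for no effect and buffer without enzyme for full effect; nearly all actives have a fitted effect of over 40% in size; top concentration of the series not given in the record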
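Cysteine protease activity tested under reducing, mildly acidic conditions (100 mM sodium acetate pH 5.5, 5 mM DTT) plus 0.01% Triton X-100. Cruzain 1.5 nM; substrate Z-FR-AMC 2 uM; 15 min compound preincubation at room temperature.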
* marks the source's active call; other numbers are inactive results; ? = inconclusive; . = no result given; & = joins results of further samples; [ ] = dose if it differs, or a comment. Unless noted, calls come from the whole dose curve; as a rule, active means well fitted rising curve with a large enough effect; inconclusive means small, poorly fitted or top-dose-only effect; inactive means no such curve, though single readings can be large or run the other way. Potency is the fitted concentration of half-maximal effect. Not a hit list; 4.6% or so of the library scored in one or more.

SMILES | StopGo reporter | SARS PLpro yeast | MARV entry inh | NS1 inh | Cruzain noTriton | Lassa entry inh | RE007 growth inh | Cruzain Triton
COc1ccc(S(=O)(=O)Nc2ncccn2)cc1 | 10% | -1% | 16% | 5% | . | 4% | 0% | .
Cc1ccc(S(=O)(=O)NC(C)C(=O)NC2CC2)cc1 (stereo not given) | -17% | -2% | . | -5% | . | . | -9% | .
COc1ccccc1-c1noc(CSc2nnc(-c3ccccc3)n2-c2ccc(C)c(C)c2)n1 | ? | . | -21%[46.1 µM] | . | -10% | ? | . | -4.3%
CC(C)c1nc(CNC(=O)CCc2nnc(-c3ccsc3)o2)cs1 | 16% | 0% | 12%[46.1 µM] | -7% | . | 7% | 8% | .
O=C1C=C(NC2=CC3OC(c4ccccc4)OCC3OC2=O)CCC1 (stereo not given) | 18µM* | 5% | ? | -15% | -3% | 10µM* | -27% | -2.2%
Cc1cccc(C)c1NC(=O)C(=O)NCc1ccccn1 | 3% | -1% | 3% | 0% | -6% | -10% | -9% | 3.7%
C#CCOCCOCCOCCNc1nc(N2CCN(C(=O)[C@H](C(C)C)n3cc(CCO)nn3)CC2)nc(N2CCN(C(=O)[C@H]([C@@H](C)CC)n3cc(CCCN=C(N)N)nn3)CC2)n1 | -9% | 14% | 25% | -21% | 1% | 1% | -6% | -6.5%
COc1ccc(OC)c(C(=O)c2ccc(C(=O)O)cc2)c1 | 17% | 9% | 0% | -2% | 9% | -19% | 8% | 1.4%
COC(=O)c1sc(NC(=O)C2CCCCC2C(=O)O)c(C(=O)OC)c1C (stereo not given) | -26% | 6% | -12% | 9% | -3% | -4% | 20% | 0.3%
CCSc1nnc(NC(=O)CSc2nccn2-c2cccc(C)c2C)s1 | -25% | -21% | 3% | -110% | 0% | -10% | -6% | 0.8%
O=C(CCNS(=O)(=O)c1ccc2c(c1)CCC(=O)N2)Nc1ccc2c(c1)OCCO2 | -21% | -4% | -9% | 0% | -3% | 2% | -13% | 3.8%
CCSc1nc2c(cnn2-c2ccc(C)cc2)c(=O)[nH]1 | -15% | 27% | -21% | -22% | ? | -1% | -1% | -1.6%
Cc1cc(C)c(S(=O)(=O)NCCc2sc(-c3cccnc3)nc2C)c(C)c1 | 47%[activator] | . | . | . | -10% | 12%[46.1 µM] | . | -9.2%
CC(=O)Oc1ccc(C(=O)Cc2ccccn2)c(O)c1 | 20% | 9% | -25% | ? | -2% | -11% | 8% | -5.4%
CCN(CC)S(=O)(=O)c1ccc2c3c(cccc13)C(=O)S2 | . | -4% | ? | -5% | -6% | -25% | 11% | -6.6%
CCn1c(SCC(=O)Nc2cccc(C)c2)nc2c(c1=O)SC(C)C2 (stereo not given) | -17% | -8% | ? | -121% | -6% | -12% | -6% | -7.5%
Cc1cc(Cl)ccc1-n1c(-c2cccnc2)n[nH]c1=S | -22% | -1% | . | -3% | . | . | 12% | .
Cc1nc(-c2cccc(NC(=O)c3ccco3)c2)cs1 | 5% | ? | ? | -39% | . | 8%[46.1 µM] | -23% | .
COc1ccc(O)c(C(=O)c2cnn(C(=O)c3cccc(S(=O)(=O)N4CCOCC4)c3)c2)c1 | 19% | 1% | ? | . | . | 16% | 1% | .
Cn1cnnc1SCC(=O)Nc1ccc(Cl)cn1 | 47%[activator] | 0% | 0%[46.1 µM] | 3% | . | 21%[46.1 µM] | -11% | .
O=C(CCN1C(=O)C2C3C=CC(C3)C2C1=O)Nc1c(F)cc(F)cc1Br (stereo not given) | -17% | 4% | 12%&12%[46.1 µM] | 4% | -2% | -5% | 0% | -1.9%
CC(OC(=O)c1cccs1)C(=O)NCc1ccc2c(c1)OCO2 (stereo not given) | -22% | 5% | ? | 4% | 3% | -6% | -10% | -1.9%
COc1ccc(N(CC(=O)NC(C)c2ccccc2)S(=O)(=O)c2ccc(C)cc2)cc1 (stereo not given) | 11% | -2% | -19%[46.1 µM] | -3% | . | -20% | 8% | .
COCC(=O)Nc1nnc(Cc2ccc(OC)c(OC)c2)s1 | 10% | -7% | 1% | -7% | -4% | -3% | 0% | 3.4%
Cc1cc(NC(=O)COC(=O)C2=COCCO2)c([N+](=O)[O-])cc1C | 37%[activator] | -1% | 14%[46.1 µM] | . | . | 1% | -1% | .
(cont.)
SMILES | StopGo reporter | SARS PLpro yeast | MARV entry inh | NS1 inh | Cruzain noTriton | Lassa entry inh | RE007 growth inh | Cruzain Triton
O=C(COC(=O)/C=C/c1ccc(OC(F)F)cc1)Nc1ccc(S(=O)(=O)N2CCCC2)cc1 | -19% | 28% | ? | 26% | -1% | 17% | . | -3.5%
Cc1ccc(NC(=O)C2CCN(c3nnc(C)c4c(C)n(-c5ccccc5)nc34)CC2)cc1Cl | -9% | . | . | . | 6% | 28%[46.1 µM] | . | 0.3%
COc1ccccc1CNC(=O)NCc1noc2ccc(C)cc12 | -15% | . | . | . | -4% | -11%[46.1 µM] | . | 0.1%
O=C(NCCc1ccccc1)/C(=C\c1ccccc1)NC(=O)c1ccco1 | -7% | 0% | 25% | 10% | . | 8% | 3% | .
COc1ccccc1CNC(=O)COC(=O)c1cc([N+](=O)[O-])ccc1N1CCOCC1 | -15% | -9% | 16% | -16% | . | -18% | 12% | .
COc1ccc(NC(=O)CN2C(=O)CC(C)(C)S(=O)(=O)c3ccccc32)cc1 | -1% | -2% | . | -3% | -6% | . | 0% | 0.4%
S=c1[nH]nc2c3c4c(sc3ncn12)CCCC4 | -18% | 12% | 12% | -142% | -23% | 10% | -11% | -1.5%
CC1(C)C(C=C(Cl)Cl)C1C(=O)Nc1ccc([N+](=O)[O-])cc1 (stereo not given) | ? | -89% | ? | -57% | 10µM* | ? | ? | 13µM*
C=CCn1c(C(C)NC(=O)CC)nc2ccccc21 (stereo not given) | . | 0% | -18% | 3% | 1% | -1% | 8% | 2.1%
COc1ccc(-c2nc3c(c(SCC(=O)N4CCCCC4)n2)Cc2c(CO)cnc(C)c2O3)cc1 | -26% | . | . | . | 9% | 5%[46.1 µM] | . | 1.4%
C=CCn1c(SCC(=O)N(CCO)CCO)nc2sc3c(c2c1=O)CCC3 | 5% | -2% | . | 14% | . | . | 15% | .
CC(C)S(=O)(=O)C1=NSC2=NC(=O)/C(=C\c3ccc(-c4cccc(C(=O)O)c4)o3)C(=N)N21 | 0% | 2% | 20% | . | . | 8% | 6% | .
CCCOc1ccc(CN2CCOCC2)cc1OC | -2% | 0% | . | -5% | . | . | 3% | .
O=C(NC(CSC(=O)c1ccccc1)C(=O)O)OCc1ccccc1 (stereo not given) | -21% | . | 13% | . | . | 28% | 27% | .
CCNC(=O)c1cccc(NC(=O)CN2C(=O)NC3(CCCCC3)C2=O)c1 | -18% | -4% | -2% | . | . | 7% | 1% | .
Cc1ccc(-c2noc(CN(C3CCCCC3)S(=O)(=O)c3ccc(F)cc3)n2)cc1 | -12% | . | ? | . | -20% | -4%[46.1 µM] | . | -6.4%
CC(=O)C(Sc1ncnc2c1nnn2-c1ccc(F)cc1)C(=O)N(C)C (stereo not given) | ? | -3% | -7% | 2% | -4% | 0% | -17% | -11%
CCN1C(=O)/C(=C/c2cn(-c3ccccc3)nc2-c2cccnc2)SC1=S | -19% | . | 5%[46.1 µM] | . | . | 3%[46.1 µM] | -2% | .
CCOC(=O)c1c(C)[nH]c(C(=O)CN2CC(C)OC(C)C2)c1C (stereo not given) | . | 13% | -6% | 0% | 1% | -21% | -2% | 5.1%
COc1cccc(CNc2nccs2)c1O | 0% | 4% | -9% | 9% | . | 1% | 9% | .
Cc1nc2ccccc2n1CC(=O)N/N=C\C=C\c1ccccc1 | ? | ? | -11% | -3% | -3% | 6% | 4% | -2.6%
COC(=O)C(C)Oc1ccc2c(c1)O/C(=C\c1cccc(Br)c1)C2=O (stereo not given) | -8% | -3% | . | -2% | . | . | -10% | .
O=C1/C(=C/c2cccs2)SC(=S)N1CCCC(=O)N(CCO)c1ccccc1 | -20% | 3% | 4%[46.1 µM] | 13% | . | ? | 1% | .
Cc1ccc(N(CC(=O)NC(C)(C)C)C(=O)CS(=O)CC(=O)Nc2ccc(F)cc2)cc1 (stereo not given) | 8% | 0% | -14%[46.1 µM] | 5% | . | -12%[46.1 µM] | -12% | .
N#Cc1c(SCC(=O)Nc2nccs2)nc2c(c1-c1ccco1)CCCC2 | 3% | -2% | ? | ? | 1% | -11% | 5% | -11%
Remaining list, next part
SMILES | StopGo reporter | SARS PLpro yeast | MARV entry inh | NS1 inh | Cruzain noTriton | Lassa entry inh | RE007 growth inh | Cruzain Triton
CCCCN1C(=O)c2ccc(C(=O)Nc3cccnc3)cc2C1=O | -11% | -6% | 21% | -8% | -1% | -1% | -8% | 3.9%
CC(C)(C)OC(=O)N1CCC(c2c(C(=O)N3CCN(c4ccccc4)CC3)cnn2-c2ccccc2)CC1 | -5% | . | . | . | -1% | ? | . | -0.4%
CC(=O)Nc1ccc(/C=N/NC(=O)CCN2CCN(c3ccccc3)CC2)cc1 | 0% | -7% | 11%[46.1 µM] | . | . | ? | 9% | .
CCN(C(=O)c1cn(C)c(=O)c2cc(OC)c(OC)cc12)c1ccccc1C | 6% | -4% | 5% | -6% | 3% | -20% | 6% | -3.2%
C[N+]1(C)C2CCC1CC(OC(=O)c1c[nH]c3ccccc13)C2 (stereo not given) | -21% | . | ? | -20% | ? | ? | -4% | ?
O=C(CSCc1ccc(Cl)cc1)c1ccco1 | . | -8% | -5% | -10% | -6% | . | . | -3.8%
Cc1onc(-c2ccccc2Cl)c1C(=O)Nc1cc(=O)n(C)c(=O)n1C | -23% | . | 1% | -7% | . | -16% | -5% | .
CCCN(CC(=O)Nc1ccccc1C)C(=O)CCl | 13µM* | 2% | ? | . | . | ? | 1% | .
